Source: PubChem
PrP UTR inh: inhibition of PrP 5' UTR reporter expression. cell-based PrP 5' UTR mRNA reporter, plate reader. inhibition, % (test concentration not listed). 340,000 tested, 0.35% active. AID 488862, 2010;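 active = every replicate at 50% or more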;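 also: 0 = median of the neutral control wells; tested in H4 reporter cells; numbers are from one replicate; inactives centre near -14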
Autofluor counter: counter-screen for toxin protease inhibitors: compound fluorescence | compound autofluorescence counterscreen, microsphere flow cytometry; hits give high values | fluorescence intensity (concentration not given with the values) | 360,000 tested, 3.1% active | AID 624483;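 active = at least 3 SD above the mean of all compounds, about 16000 in these data; inconclusive = too few beads counted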;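 also: 100 nL of 1 mM stock went into each well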
Mtb hypoxia rep: PubChem AID 1159583 | M. tuberculosis hypoxia-regulated fluorescent reporter, fluorescence | fluorescence inhibition, % (test concentration not listed) | 300,000 tested, 0.1% active;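 active = 35 to 45% if threefold the growth effect, above 45% if 1.5-fold the growth effect; inactive = the rest, general growth blockers included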;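 also: wells of about 50 µL received 100 nL stock; 0% = vehicle wells and 100% = reference inhibitor wells; whole bacteria with a GFP reporter of the hypoxia response; strong numbers were not always called active; many hits fall short of the cut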
Sa ugtP lethal: growth inhibition of ugtP-null S. aureus, primary screen, RN4220 ugtP deletion, OD600. 330,000 tested, 0.54% active. AID 1259309, 2017. 16 h; some inactives read as strong as hits. growth inhibition, % (test concentration not listed);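 active = z-score under -3 and OD600 up to 0.15 on both plates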;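 also: plate controls were untreated wells for no effect and antibiotic for full effect; wells of about 80 µL received 100 nL stock; the first replicate is given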
Sa RN4220 lethal: growth inhibition of S. aureus RN4220, primary screen, OD600; 16 h; inhibition, % (concentration not given with the values); 330,000 tested, 0.33% active; AID 1259311, 2017;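 active = z-score of -3 or lower and OD600 up to 0.18 on both plates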;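 also: plate controls were untreated cells for no effect and reference antibiotic for full effect; stock transfer was 100 nL into about 80 µL; one replicate is shown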
BJeLR lethal: MLPCN primary cell-based screen for lethality selective to Ras in HRASV12 cells | BJeLR (HRASV12) viability, CellTiter-Glo ATP luminescence, 48 h; reference of the scale not given here | AID 1554, 2009 | 300,000 tested, 0.17% active | inhibition, % (no concentration beside the values);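 active = replicate mean above 50%; inconclusive = above 50% but judged a plate artefact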;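 also: 50 nL library stock added to about 25 µL; numbers are from one replicate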
Mtb hypoxia rep growth: recorded beside Mtb hypoxia rep, whose call it bears; growth inhibition, %; measured here: M. tuberculosis growth (absorbance);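 0% = vehicle and 100% = reference antibiotic; read after six days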
* hit, by the source's call; u = inconclusive; x = not tested or not shown.

SMILES,PrP UTR inh,Autofluor counter,Mtb hypoxia rep,Mtb hypoxia rep growth,Sa ugtP lethal,Sa RN4220 lethal,BJeLR lethal
Cc1cc(-c2n[nH]c(=S)n2/N=C/c2cccc([N+](=O)[O-])c2)n[nH]1,-15,2551,x,x,x,x,0
CN(C)c1ccc(CC(=O)c2nc3ccccc3s2)cc1,-9,2156,-1,-1,2,5.0,-5
Cc1onc(-c2c(Cl)cccc2Cl)c1C(=O)N1CCN(c2ccc(F)cc2)CC1,-24,3821,3,0,5,0.3,-1
NC(=O)CN1C(=O)NC2(CCCc3sccc32)C1=O (stereo unspecified),-12,4887,1,14,3,0.6,1
COC(=O)c1ccccc1NC(=O)COC(=O)[C@H](C)NC(N)=O,2,4247,5,-2,-4,2.7,-10
Cc1c(C(=O)N2CCN(c3ccccn3)CC2)oc2c1C(=O)CC(C)(C)C2,-5,5837,9,3,3,2.6,-14
CCNS(=O)(=O)c1ccc(CCC(=O)Nc2ccc3c(c2)OCO3)cc1,-63,4128,11,-1,7,3.7,-1
COc1ccc(-c2nnc(NC(=O)Cc3ccccc3)o2)cc1,-2,5608,4,7,-4,-5.3,-11
COc1cccc(N(CC(=O)Nc2ccccc2C(=O)N2CCCC2)S(C)(=O)=O)c1,-35,3438,-2,-2,7,1.9,-2
CCSc1nc(N2CCOCC2)c2c(c1C#N)CCCC2,1,5000,x,x,7,1.8,0

Compounds from the list above that have a carbonyl joined to an NH by a bond outside any ring, in the order listed:
SMILES,PrP UTR inh,Autofluor counter,Mtb hypoxia rep,Mtb hypoxia rep growth,Sa ugtP lethal,Sa RN4220 lethal,BJeLR lethal
NC(=O)CN1C(=O)NC2(CCCc3sccc32)C1=O (stereo unspecified),-12,4887,1,14,3,0.6,1
COC(=O)c1ccccc1NC(=O)COC(=O)[C@H](C)NC(N)=O,2,4247,5,-2,-4,2.7,-10
CCNS(=O)(=O)c1ccc(CCC(=O)Nc2ccc3c(c2)OCO3)cc1,-63,4128,11,-1,7,3.7,-1
COc1ccc(-c2nnc(NC(=O)Cc3ccccc3)o2)cc1,-2,5608,4,7,-4,-5.3,-11
COc1cccc(N(CC(=O)Nc2ccccc2C(=O)N2CCCC2)S(C)(=O)=O)c1,-35,3438,-2,-2,7,1.9,-2

Going on with the list:
SMILES,PrP UTR inh,Autofluor counter,Mtb hypoxia rep,Mtb hypoxia rep growth,Sa ugtP lethal,Sa RN4220 lethal,BJeLR lethal
CCN1CCN(C(=S)NC(C)c2ccccc2)CC1 (stereo unspecified),-19,2075,1,10,15,-1.4,-13
COc1cc(C=NN=Cc2cc(OC)c(O)c(OC)c2)cc(OC)c1O,x,x,5,3,7,4.6,x
CCOC(=O)N1CCN(C(=O)c2ccccc2NC(=O)c2ccc(F)cc2)CC1,-14,2096,-16,-9,5,0.0,-1
COc1ccc(/C=C/C(=O)Nc2ccccc2)cc1OC,-47,4474,-5,1,-1,2.3,-14
O=C(NCCN1CCOCC1)c1cc(-c2ccccc2)on1,-36,10934,8,3,-2,4.8,5
O=C(Nc1ccc(Oc2ccccc2)cc1)c1ccc(Cn2c(=O)[nH]c3ccsc3c2=O)cc1,11,4162,-5,-2,17,-6.6,11
COc1cc2c(=O)n(CCC(=O)NCC3CCCO3)c(=O)n(CC(=O)Nc3ccccc3C)c2cc1OC (stereo unspecified),-14,5860,12,-5,9,1.0,0
Cc1ccc(C)c(NC(=O)C2CC3c4ccccc4C2c2ccccc23)c1 (stereo unspecified),-3,5132,x,x,5,-2.8,2
Clc1ccc2scc(CN3CCCCC3)c2c1,-23,2082,9,15,9,4.5,-3
CCOc1c(OC)ccc2c3c(c(=O)oc12)CCCC3,14,22747*,11,8,-1,1.9,-1
COCCn1c(SCC(=O)Nc2ccc(F)cc2)nc2c([nH]c3ccccc32)c1=O,-6,6203,15,11,1,10,0
CC(=O)N/N=C(\C)CC(=O)Nc1cccc(C(F)(F)F)c1,-11,3285,x,x,x,x,-2
Cc1c(-c2cccc(Cl)c2)nc2ccccc2c1C(=O)NC1CC1,10,5810,-12,0,0,-0.7,x
Cc1ccc(/C=C2\Sc3ccccc3C2=O)s1,-51,3281,8,11,-16,4.8,-5
Cc1cc(C)c(C(=O)O)c(CC(C)(C)C(=O)O)c1,0,x,7,2,3,3.9,-14
N#Cc1c(-c2cccc([N+](=O)[O-])c2)nc2n(c1=O)CCS2,4,3161,7,1,-3,-0.6,-9
CCc1ccc(C(=O)NNc2ccc(F)cc2)cc1,-20,4399,13,4,10,-2.6,-2
CCc1ccc(-c2cc(C(=O)NCc3ccco3)c3ccccc3n2)s1,-12,11295,-5,1,-8,-1.9,-7
COc1cc(S(=O)(=O)N2CCN(C(=O)C3CC3)CC2)ccc1NC(C)=O,-19,3352,3,9,6,4.4,x
CCS(=O)(=O)c1ncc(Cl)c(C(=O)Nc2ccc(C)cc2)n1,-7,3037,x,x,x,x,23

(next part)
Each structure is followed by: PrP UTR inh	Autofluor counter	Mtb hypoxia rep	Mtb hypoxia rep growth	Sa ugtP lethal	Sa RN4220 lethal	BJeLR lethal
- O=C(COC(=O)/C=C/c1ccccc1[N+](=O)[O-])NC1CC1
→ -7	4891	2	19	0	3.2	6
- CC(=O)Nc1ccc(NC(=O)CC(NC(=O)c2ccccc2)c2ccccc2)cc1 (stereo unspecified)
→ 8	2963	-3	-9	7	3.7	2
- C/C=C(\C)CN1CCN(c2ccc(C)cc2)CC1
→ -39	2954	1	4	2	-10	-1
- COc1ccc(C(=O)NCC2CCCO2)cc1S(=O)(=O)N1CCCc2ccccc21 (stereo unspecified)
→ 5	4510	-7	13	6	7.9	-22
- COc1cc(C2CC(=O)C3=C(C2)Nc2ncnn2C3c2cccs2)cc(OC)c1OC (stereo unspecified)
→ x	4547	3	6	2	2.9	0
- Cc1cc(N2CCCCC2)nc(SCC(=O)c2ccccc2)n1
→ -28	7033	2	-4	-7	-0.7	-7
- Cc1ccc(S(=O)(=O)N(CC(=O)N/N=C/c2ccccc2C(=O)O)c2cc(Cl)cc(Cl)c2)cc1
→ -22	4529	x	x	x	x	-9
- CCOC(=O)C(CCSC)Nc1nc(Cl)nc(Nc2ccc(Cl)cc2)n1 (stereo unspecified)
→ -12	4058	-2	7	-36	-2.5	3
- COc1ccc(C(=O)NN=Cc2c(C)[nH]c(=O)[nH]c2=O)cc1
→ x	x	3	4	2	1.6	x
- Cc1cc(C)c2nc(N3CCC(C(=O)NCc4cccnc4)CC3)sc2c1
→ -19	2173	1	3	3	2.0	3
- Cc1nonc1OCCNc1ccc([N+](=O)[O-])cc1[N+](=O)[O-]
→ 5	2409	6	7	-10	7.7	x
- CN(C)S(=O)(=O)c1cccc(NC(=O)COC(=O)CCC(=O)c2cccs2)c1
→ -18	3097	-5	-3	3	8.6	-8
- CCCN1CC(O)=C(C#N)C1=O
→ -9	3796	14	13	1	5.0	-1
- Cc1ccc(Cl)cc1N1CCN(S(=O)(=O)c2c(C(=O)N3CCOCC3)c(C)n(C)c2C)CC1
→ -13	4390	4	-6	16	5.6	5
- COc1cccc(CN(C)CC(=O)Nc2cccc3ccccc23)c1
→ -12	3478	-14	-10	8	4.6	-2

Record cards, from the list above.
Shown for CCOC(=O)N1CCN(C(=O)c2ccccc2NC(=O)c2ccc(F)cc2)CC1 = PrP UTR inh: -14; Autofluor counter: 2096; Mtb hypoxia rep: -16; Mtb hypoxia rep growth: -9; Sa ugtP lethal: 5; Sa RN4220 lethal: 0.0; BJeLR lethal: -1
Shown for Cc1cc(-c2n[nH]c(=S)n2/N=C/c2cccc([N+](=O)[O-])c2)n[nH]1 = PrP UTR inh: -15; Autofluor counter: 2551; Mtb hypoxia rep: x; Mtb hypoxia rep growth: x; Sa ugtP lethal: x; Sa RN4220 lethal: x; BJeLR lethal: 0

(listing goes on)
Each structure is followed by: PrP UTR inh	Autofluor counter	Mtb hypoxia rep	Mtb hypoxia rep growth	Sa ugtP lethal	Sa RN4220 lethal	BJeLR lethal
- C=CC[C@@H](Cc1ccc(F)cc1)C(=O)OC[C@H]1CCCN1C(=O)[C@@H](CC=C)CC(=O)N(CCO)Cc1ccccc1
→ -4	3567	3	6	-7	2.3	x
- Cc1c(-c2cccc(Cl)c2)nc2ccccc2c1C(=O)OCC(=O)Nc1ccc2c(c1)OCO2
→ -23	9729	-6	-10	-12	-13	4
- COc1ccc(CNC(=O)CCC(=O)N2C[C@H]3C[C@H](C2)c2cccc(=O)n2C3)cc1
→ -19	5847	x	x	11	1.9	-5
- Cc1ccsc1C(=O)C1CCCN(Cc2cc(C(C)C)n[nH]2)C1 (stereo unspecified)
→ -43	4254	1	5	-2	1.5	-4
- CCOC(=O)C1C(=O)CC(C)(O)C(C(=O)OCC)C1c1ccccc1OC (stereo unspecified)
→ -2	21006*	8	6	5	4.1	0
- O=[N+]([O-])c1cc(C(F)(F)F)ccc1N1CCN(S(=O)(=O)c2ccc3ccccc3c2)CC1
→ -8	2213	x	x	-3	4.1	5
- Cc1ccc(C)c2sc(NC(=O)c3nc4ccccc4s3)nc12
→ -10	5828	1	11	-3	-12	-12
- COc1ccc2c(Cl)c(C(=O)NCC3CCCO3)sc2c1Cl (stereo unspecified)
→ x	x	6	7	-5	5.1	7
- CCC(C)(C)NC(=O)CN(C(=O)CCC(=O)Nc1nccs1)c1cccc(C)c1C
→ -31	4140	-3	0	-5	-1.7	-1
- COC(=O)c1ccc(N2NC(=O)/C(=C/c3cc(OC)c(OC)c(OC)c3)C2=O)cc1
→ 1	3794	-9	8	5	2.7	-9
- O=S(=O)(Nc1ccc(Cl)cn1)c1ccc2c(c1)OCCO2
→ -26	5473	-6	3	-2	4.9	1
- Cc1c(Cl)ccc2c(C(=O)O)cc(-c3ccccc3)nc12
→ -2	4029	2	-3	6	14	12
- O=C(CN1CCOCC1)NNC(=O)c1ccc([N+](=O)[O-])cc1
→ -7	5086	-2	-3	8	3.7	-8
- O=C1C(=O)N(CCN2CCOCC2)C(c2ccccn2)/C1=C(/O)c1ccc(Cl)cc1 (stereo unspecified)
→ -9	4720	7	-2	6	1.8	-1
- O=C(Nc1cc([N+](=O)[O-])ccc1C(=O)NCCN1CCOCC1)c1ccccc1
→ -2	5471	6	16	3	3.3	1
- CCc1ccc(NC(=O)Nc2cc(C(=O)NCC3CCCO3)ccc2N2CC3CC(C2)c2cccc(=O)n2C3)cc1 (stereo unspecified)
→ -16	4962	6	-2	3	-0.6	-12
- COc1ccc(NC2CCCN(C(=O)C3(C)CCCCC3)C2)cc1OC (stereo unspecified)
→ -11	5868	-4	3	0	-1.2	-4
- CCCOc1ccc(N2CC(C(=O)Nc3ccc4c(c3)OCO4)CC2=O)cc1 (stereo unspecified)
→ -21	6005	x	x	5	4.0	-10
- C=CCn1c(CCn2c3ccccc3c3ccccc32)n[nH]c1=S
→ -26	1998	-6	2	-17	-3.8	0
- O=C(Cc1ccc(NC2=NC3CS(=O)(=O)CC3S2)cc1)Nc1ccc(F)cc1 (stereo unspecified)
→ -9	5852	6	13	-4	-10	-8
- CN(C)/C=C1\C(=O)Oc2ccccc2C1=O
→ x	4330	-8	-21	0	-0.1	-7
- CC(=O)c1ccc(S(=O)(=O)Nc2ccc(Cl)c(S(=O)(=O)N3CCCC3)c2)cc1
→ -6	5213	0	-3	3	13	x
- Cc1nc(P(=O)(c2ccccc2)c2ccccc2)c(N2CCOCC2)o1
→ -20	4123	-3	-3	4	0.2	7
- CC(NC(=O)/C(C#N)=C1\N=C(NC(=O)c2ccco2)c2ccccc21)c1ccccc1 (stereo unspecified)
→ x	x	2	6	-17	-6.3	-4
- CC1(C(=O)N/N=C/c2c(F)c(F)c(F)c(F)c2F)CC1(Cl)Cl (stereo unspecified)
→ -15	4080	x	x	x	x	0
- COc1ccc(-c2nc(CSCC(=O)NCc3ccco3)c(C)o2)cc1
→ 8	u	4	2	-4	-2.6	-11
- Nc1nonc1-n1nnc(C(=O)N/N=C\c2cccc(Cl)c2)c1CN1CCOCC1
→ 7	5482	x	x	x	x	5
- CN1C(=O)CC(N2CCN(C(=O)CN3CCCC3)CC2)C1=O (stereo unspecified)
→ -16	24470*	2	5	8	6.3	-2
